VDR inh: blocks the human vitamin D receptor; actives 0.93% (n = 400,000); VDR-SRC2-3 peptide fluorescence polarization, 2 h; Potency, µM, inactives show max response, negative = inhibition, actives largely listed as inhibitors; active = well fitted inhibition curve with a large enough effect; inconclusive = small, poorly fitted or top-dose-only effect, or another doubt; inactive = no such curve, though single readings can be large or run the other way; also: series mostly up to about 120 µM
Target sequence (P11473 whole entry, looked up): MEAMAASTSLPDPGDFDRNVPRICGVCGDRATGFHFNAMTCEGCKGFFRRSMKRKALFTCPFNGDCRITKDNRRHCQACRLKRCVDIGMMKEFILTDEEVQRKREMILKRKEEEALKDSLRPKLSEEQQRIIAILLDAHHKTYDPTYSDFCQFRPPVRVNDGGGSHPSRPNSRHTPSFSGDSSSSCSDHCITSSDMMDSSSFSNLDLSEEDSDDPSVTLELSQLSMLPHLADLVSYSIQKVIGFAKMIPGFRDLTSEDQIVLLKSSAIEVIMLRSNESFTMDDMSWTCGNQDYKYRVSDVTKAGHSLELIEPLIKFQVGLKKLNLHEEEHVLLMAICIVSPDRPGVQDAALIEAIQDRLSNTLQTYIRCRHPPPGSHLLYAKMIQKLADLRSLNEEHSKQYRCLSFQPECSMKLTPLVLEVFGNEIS
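Signal is fluorescence polarization, reporting how far test compounds block the interaction of VDR with the SRC2-3 coregulator peptide after a 2 h room-temperature incubation.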
Starred values were filed as active, the others as inactive; u = inconclusive. % is scaled to controls: 0 for no effect and ±100 for the full control effect; potency is read from the fitted curve at half-maximal effect. This is a subset (hit frequency here may not be typical).

molecule	VDR inh
CCn1cc(/C=C(\NC(=O)c2ccc(OC)cc2)C(=O)NCCCn2ccnc2)c2ccccc21	3.6%
Brc1ccc(Nc2c3c(nc4ncnn24)CCC3)cc1	-2.5%
CC1CCN(C(=O)CSc2nc3c(c(=O)n(C)c(=O)n3C)n2C)CC1	3.1%
Cc1ccc(NC(=O)COC(=O)Cc2c(F)cccc2Cl)cc1S(=O)(=O)N1CCOCC1	-7.0%
CC(C)Oc1ccc(C(=O)CCN2CCOCC2)cc1	44.7µM*
CCCCN(C(=O)c1cc(S(=O)(=O)N2CCCCCC2)ccc1OC)c1ccccc1	-17.9%
O=C(C1CCCC1)N1CCN(S(=O)(=O)c2cccc(Cl)c2Cl)CC1	0.6%
COC(=O)c1cc(Br)c(=O)n(-c2ccccc2F)c1	-22.3%
C[C@H](CO)N1C[C@H](C)[C@@H](CN(C)C(=O)Nc2ccc3c(c2)OCO3)Oc2c(NS(=O)(=O)c3ccccc3)cccc2C1=O	-10.1%
CC1CCN(c2ccc3c(c2)S(=O)(=O)c2cccc(C(=O)NC[C@@H]4CCCO4)c2C3=O)CC1	-3.6%
COc1ccc(NC(=O)COC(=O)Cn2cnc3ccccc3c2=O)cc1OC	-1.1%
CCCCNc1ncnc2c1cnn2-c1ccc(C)cc1C	-12.5%
Cc1ccc(C(=O)Oc2ccc(Cl)c3cccnc23)cc1[N+](=O)[O-]	-25.6%
CC1(C)CCC(=O)N(c2ccc(OC(F)(F)F)cc2)C1=O	-6.4%
COc1ccc(/C(N)=N/OC(=O)Oc2ccccc2)cc1OC	0.7%
COc1cc(NC(=O)CC(C)S(=O)(=O)c2ccc3c(c2)NC(=O)CO3)cc(OC)c1OC (stereo not drawn)	-14.1%
O=C(Nc1ccccc1)c1ccccc1N=Cc1cccc(O)c1	11.4%
O=C(c1ccccc1)c1ccc(Oc2ccc(C(=O)O)c(C(=O)O)c2)cc1	-18.5%
Cc1[nH]c2ccccc2c1C(=O)COC(=O)c1nccnc1N	12.8%
O=C(CN1C(=O)/C(=C/c2ccccc2F)Oc2ccccc21)N1CCN(c2ccccn2)CC1	4.0%
Cc1ccc(N2CC(NC(=O)C3CCCCC3)CC2=O)cc1C (stereo not drawn)	-2.1%
Fc1ccc(CSc2nc3ncc(Br)cc3[nH]2)cc1	17.0%
COc1ccc(Cc2c(O)nc(SCC(=O)NC(C)(C)C)[nH]c2=O)cc1	5.3%
O=C(Nc1ccncc1)c1cncc(Br)c1	0.8%

Look-ups from the entries so far:
In VDR inh, CC1(C)CCC(=O)N(c2ccc(OC(F)(F)F)cc2)C1=O is listed with -6.4%
In VDR inh, CCCCN(C(=O)c1cc(S(=O)(=O)N2CCCCCC2)ccc1OC)c1ccccc1 is listed with -17.9%

Further compounds:
molecule	VDR inh
COCCNc1ncncc1-c1ccccc1OC	0.1%
COc1cc(OC)cc(C(=O)OCC(=O)Nc2ccc(N3CCCCC3)cc2)c1	-9.4%
O=C(NCCC1=CCCCC1)c1ccc2c(c1)N(Cc1ccccc1)C(=O)c1ccccc1S2(=O)=O	-20.0%
Cn1cc(/C=C(\NC(=O)c2ccccc2Cl)C(=O)N2CCOCC2)c2ccccc21	4.9%
NC(=O)C1CCN(C(=O)CSCc2ccccc2Cl)CC1	10.0%
O=c1[nH]ncn2cccc12	3.8%
COc1ccccc1C(=O)Nc1ccc(S(=O)(=O)Nc2ncccn2)cc1	-6.6%
CCNS(=O)(=O)c1ccc(CCC(=O)Nc2ccc3c(c2)OCCO3)cc1	-15.5%

Part of the list above in another layout.
> O=C(NCCC1=CCCCC1)c1ccc2c(c1)N(Cc1ccccc1)C(=O)c1ccccc1S2(=O)=O
  VDR inh: -20.0%

> Cn1cc(/C=C(\NC(=O)c2ccccc2Cl)C(=O)N2CCOCC2)c2ccccc21
  VDR inh: 4.9%

Following part
molecule	VDR inh
CN(C)c1ccc(C2SCCN2C(=O)c2ccc([N+](=O)[O-])cc2)cc1 (stereo not drawn)	-14.0%
C=CCSc1cc(C)nc2c(-c3ccc(Cl)cc3)c(C)nn12	12.4%
COc1cc2c(OC)cccc2cc1C(=O)O	9.2%
CCOC(=O)C1CCCN(Cc2nc(C3CC3)no2)C1 (stereo not drawn)	10.4%
CCCC(=O)Nc1nnc(-c2ccc3c(c2)OCO3)s1	-5.0%
CCC(C)c1ccc(O[C@@H]2O[C@H](CO)[C@@H](O)[C@H](O)[C@H]2NC(C)=O)cc1 (stereo partly drawn)	9.4%
CC1CN(c2ccc([N+](=O)[O-])nc2)CC(C)O1 (stereo not drawn)	-5.3%
CC(=NNC(N)=O)C1=C(O)C(C(C)C)NC1=O (stereo not drawn)	-5.1%

5 entries out of the list, ordered by molecular weight, descending.
molecule	VDR inh
CN(C)c1ccc(C2SCCN2C(=O)c2ccc([N+](=O)[O-])cc2)cc1 (stereo not drawn)	-14.0%
CCCC(=O)Nc1nnc(-c2ccc3c(c2)OCO3)s1	-5.0%
CCOC(=O)C1CCCN(Cc2nc(C3CC3)no2)C1 (stereo not drawn)	10.4%
CC(=NNC(N)=O)C1=C(O)C(C(C)C)NC1=O (stereo not drawn)	-5.1%
CC1CN(c2ccc([N+](=O)[O-])nc2)CC(C)O1 (stereo not drawn)	-5.3%

(continued)
molecule	VDR inh
CC(C(=O)Nc1ccccc1C(F)(F)F)n1nnc2sc3c(c2c1=O)CCCC3 (stereo not drawn)	6.8%
Cc1ccc2c(CC(=O)Nc3ccc(S(=O)(=O)N4CCCC(C)C4)cc3)coc2c1 (stereo not drawn)	20.1%
C=CCN(C(=O)c1csnn1)C(C(=O)NCc1ccc(F)cc1)c1ccccc1F (stereo not drawn)	3.5%
COCCNC(=S)NNc1ccccc1[N+](=O)[O-]	u
CC(CC1CC(C)(C)OC1=O)C(=O)Nc1nncs1 (stereo not drawn)	6.1%
Cc1cc(C)n(-c2nc(C)nc3c2cnn3-c2ccccc2)n1	-2.3%
O=C(CSc1n[nH]c(-c2ccco2)n1)Nc1ccccc1	-3.8%
Fc1cccc(Cl)c1CSc1ccc(-c2ccco2)nn1	-4.9%
CSc1ccc(CCNC(=O)CCn2c(=O)c3cccn3c3cccnc32)cc1	-4.0%
CC(C)(C)C1=NN(C(=O)c2ccccc2)C(O)(C(C)(C)C)C1 (stereo not drawn)	5.4%
CCOc1ccc(NC(=O)CSc2oc(-c3ccco3)nc2S(=O)(=O)c2ccccc2)cc1	-14.5%
CCOC(=O)C[N+]1(C)CCN(C(C)=O)CC1	-9.0%
COCCn1c(SCC(=O)N2CCc3ccccc32)nc2c(c1=O)SC(C)C2 (stereo not drawn)	-4.5%
Cc1ccc(-c2nnc(SC(C)C#N)n2N)cc1 (stereo not drawn)	7.4%
O=C(NCC(c1ccc2c(c1)OCO2)N1CCOCC1)c1ccccc1 (stereo not drawn)	-0.2%
Cc1ccccc1OCC(=O)N/N=C/c1ccncc1	-4.2%
Cc1cc(NC(=O)c2cc(Cl)ccc2Cl)no1	2.3%
Cc1ccc(C)c(N2CCN(C(=O)c3ccc(N4CCCC4=O)cc3)CC2)c1	-7.1%
c1ccc2c(c1)OCC(CNCC1COc3ccccc3O1)O2 (stereo not drawn)	-15.2%
Cc1ccc(CC2C(=O)N(c3ncccn3)C(=O)C2C)cc1 (stereo not drawn)	-14.5%
Cc1ccccc1C1NC(=S)NC2=C1C(=O)CCC2 (stereo not drawn)	17.9%
Cc1ccc2c(c1)C(C)(c1ccccc1)CC(C)(C)N2C(=O)c1ccc(F)cc1 (stereo not drawn)	-10.0%
O=C(O)c1cnn2c(C(F)F)cc(C3CC3)nc12	14.1%
CSc1ccc(CNc2ncc(-c3ccccc3)n2C)cc1	3.5%

Compounds above containing bromine (four):
molecule	VDR inh
Brc1ccc(Nc2c3c(nc4ncnn24)CCC3)cc1	-2.5%
COC(=O)c1cc(Br)c(=O)n(-c2ccccc2F)c1	-22.3%
Fc1ccc(CSc2nc3ncc(Br)cc3[nH]2)cc1	17.0%
O=C(Nc1ccncc1)c1cncc(Br)c1	0.8%

Remaining list, next part.
molecule	VDR inh
Cc1cc(C)n(C(=O)CNC(=O)c2ccc(Cl)cc2Cl)n1	14.2%
CC(C)Oc1ccc(CNC(=O)c2ccc(NC(=O)N3CCSc4ncccc43)cc2)cc1	7.1%
Cc1ccc(C(=O)COC(=O)COc2ccccc2O)cc1C	6.1%
Cc1ccc(-c2nc(CS(=O)CC(=O)NC3CCCC(C)C3C)c(C)o2)cc1 (stereo not drawn)	-0.7%
CCN(CC)S(=O)(=O)c1cccc(C(=O)OCC(=O)Nc2ccccc2OC(F)F)c1	-13.5%
Fc1ccccc1Cn1nnc2c(NCc3ccccn3)ncnc21	1.2%
CC1CN(c2ccc(Cl)cc2)c2nc3c(c(=O)n(CC(=O)O)c(=O)n3C)n2C1 (stereo not drawn)	26.5%
COC(=O)[C@@]12CCCCN1[C@H](c1ccc(-c3cccc(Cl)c3)cc1)[C@H]1C(=O)N(C)C(=O)[C@H]12	5.6%

Going on with the list:
molecule	VDR inh
Nc1cnc(Nc2ccc(Br)cc2)nc1N	5.2%
O=C(Nc1ccc(-c2ccc3nncn3n2)cc1)c1ccc(Br)o1	-4.1%
Cc1cccc(N(C(=O)c2sc(C)nc2C)C(C(=O)NCC2CCCO2)c2ccccc2)c1 (stereo not drawn)	-5.9%
COc1ccc(Nc2cc(C(=O)NCc3ccccc3OC)c3ccccc3n2)cc1	10.2%
CCn1c(SCC(=O)N/N=C/c2ccccc2OCC(=O)O)nnc1-c1ccc(C)cc1	18.4%
COc1c(S(=O)(=O)N2CCN(C)CC2)ccc(Cl)c1Cl	1.6%
CCCCCCCCN1[C@@H](CC(=O)OC)c2cc(C(F)(F)F)ccc2S1(=O)=O	-0.5%
COc1ccccc1-n1c(SCC(=O)Nc2nnc(C)s2)nc2c(c1=O)SCC2	8.6%
NC(=O)/C(=C\c1ccccc1)NC(=O)/C=C/c1ccccc1	-11.1%
CC1=C(C(=O)Nc2cccc(C)c2C)C(c2cccs2)NC(=S)N1 (stereo not drawn)	-4.1%
CCOC(=O)C(C(=O)OCC)C1CCS(=O)(=O)C1 (stereo not drawn)	-20.1%
O=C(Nc1cccc(Cl)c1)NC1CC2CCC(C1)N2Cc1cccs1 (stereo not drawn)	-9.0%
CCCCN(C)CCCNC(=O)Cn1ncc2c3ccccc3n(Cc3cccc(Cl)c3)c2c1=O	18.3%
CC1CC(C)(C)CC2(C1)NC(=O)N(CC(=O)NCC(c1ccco1)N1CCCCC1)C2=O (stereo not drawn)	16.7%
COC(=O)[C@H](CCSC)NC(=O)Cn1cc(C)c(=O)[nH]c1=O	-3.1%
CC(C)C(C)NC(=O)CN1C(=O)NC2(CCCCCC2)C1=O (stereo not drawn)	14.1%
CCOC(=O)c1c(-c2ccc(OC)cc2)oc2cc(Br)c(O)cc12	4.0%
Cc1cc2nc(-c3ccc(SCc4ccccc4C#N)nc3)[nH]c2cc1C	0.1%
CCCNC(=O)c1c(N)n(-c2ccc(S(N)(=O)=O)cc2)c2nc3ccccc3nc12	-15.2%
COc1ccccc1NC(=O)C1=C(C)NC(=O)NC1c1ccc(C)cc1 (stereo not drawn)	3.1%
Cn1nc(C(=O)NNC(=O)COc2ccccc2)c2ccccc2c1=O	-8.1%
O=C(C1CC1)N1CCN=C1SCc1cccc(C(F)(F)F)c1	-2.2%
COc1ccc(CCNC(=O)CSc2ccc(-c3cccs3)nn2)cc1	-11.5%
CC(=O)Oc1ccc(S(=O)(=O)c2ccc(OC(C)=O)cc2)cc1	8.7%
Cc1nc(-c2cn[nH]c2)c2cc(C)oc2n1	-12.0%
Cc1cccc(NS(=O)(=O)c2ccc(C(=O)NCCCN3CCOCC3)cc2)c1C	-1.3%
Cc1ccc2nc(SCC(=O)N3CCCC3)nc(=O)n2c1	-0.6%
N#CC1=C(SCC(=O)c2ccc(Cl)cc2)NC2=C(C(=O)CCC2)C1c1ccco1 (stereo not drawn)	-0.5%
Cn1cc(C(=O)NC2CCCCC2)c(=O)c2cc(S(=O)(=O)N3CCCC3)ccc21	12.7%
COc1ccccc1CNC(=O)CCN=C1NS(=O)(=O)c2ccccc21	-13.9%
O=C(CCS(=O)(=O)Cc1ccc(Cl)cc1)NCCc1ccccc1	4.4%
CCc1ccc2occ(CC(=O)Nc3sc4c(c3C(=O)NCCOC)CCCC4)c2c1	7.1%
Cc1cccc(OCC(=O)Nc2ccc(C(=O)OCc3cc(=O)n4nc(C5CC5)sc4n3)cc2)c1	-1.7%
Cc1ccccc1OCCN1CCCC1	-7.3%
COc1c(C)cc(Br)cc1C(=O)Nc1ccc(C)cc1[N+](=O)[O-]	-24.0%
CCCCNC(=O)c1cc(Sc2ccc(OCC)cc2)nc2ccccc12	6.4%
O=C(O)Cn1c2c(c3ccccc31)CSc1ccc(Cl)cc1-2	u
CC(CCc1ccccc1)NC(=O)CN(C)Cc1ccc(F)cc1 (stereo not drawn)	-12.8%
O=C(CCS(=O)(=O)c1ccc(Br)s1)NCc1cccs1	-9.9%
O=C(CCn1cccc1)NCc1ccc(Cl)cc1	-2.1%
COc1ccc(CCn2c(N)c(C(=O)NCc3ccco3)c3nc4ccccc4nc32)cc1	u
CCOC(=O)c1cc(S(=O)(=O)Nc2cc(F)ccc2C)[nH]n1	6.7%
C/C(CC(=O)Nc1cc(C)ccn1)=N\NC(=O)c1ccc(C(C)(C)C)cc1	-10.0%
CNCC(O)c1cccc(O)c1 (stereo not drawn)	4.7%
Cc1nc2c(C)cccc2c2c1CCN2c1ccccc1F	-3.2%
COc1cccc(N2CCN(c3ccc4nnc(CCC(=O)N5CCC(C)CC5)n4n3)CC2)c1	-27.6%
COc1ccc(NS(=O)(=O)c2ccc(F)c(F)c2F)cc1S(=O)(=O)N1CCOCC1	26.9%
COc1ccc(NC(=O)N(Cc2ccco2)C2CCN(C(C)=O)CC2)c(OC)c1	12.3%
COc1cc(NC(=O)[C@H]2CSCN2C(=O)[C@@H]2CCC(=O)N2)cc(OC)c1OC	2.0%
NC(=O)C1CCN(C(=O)CCSCc2ccccc2)CC1	-7.3%

Assay outcomes (PubChem)
